Assay outcomes from PubChem.
TsaE inh = YjeE (TsaE) inhibition, E. coli; P0AF67; purified YjeE, fluorescence polarisation of a bound ADP probe; Potency, µM; hit rate 0.05% among 71,000; AID 605; active = well fitted falling curve; inconclusive = weaker or top-dose-only fall, or a rising curve; inactive = flat or poorly fitted curve;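 note: top concentration of the series not given in the record; excess ADP was the control for the full effect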
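Purified YjeE (10 uM) with BODIPY Texas Red-labeled ADP probe (2 uM); compounds pin-transferred, 15 min at room temperature. Binding inhibition read as decreased fluorescence polarization; ADP titration as control.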
Bst PK mod = pyruvate kinase (B. stearothermophilus) modulation; partly purified Bacillus stearothermophilus pyruvate kinase, luminescence ATP production; ribose 5-phosphate activator present at AC10; AID 361; hit rate 1.2% among 51,000; Potency, µM; in the data active means potency below about 11 µM; inconclusive means mostly about 12 µM to 25 µM; inactive means weaker than that;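 the screen sought inhibitors and activators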;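 note: potency is the fitted concentration of half-maximal effect; scaled between full activation by ribose 5 phosphate and full inhibition by luteolin; about four in five hits inhibit and the cells do not say which; series up to 57 µM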
* = called active by the depositor; i = inactive; u = inconclusive; x = no result given; & = joins results of further samples. These rows are one share of the data; rates above refer to the full screens.

SMILES	TsaE inh	Bst PK mod
Cc1cc(C)n(S(=O)(=O)c2cc(C(=O)O)c(Cl)cc2Cl)n1	i	>57
O=C(CSc1nnc(Cn2c(=O)sc3ccccc32)n1-c1ccccc1)N1CCOCC1	i	>57
CCOC(=O)CSc1nnnn1-c1cc(OC)c(Cl)cc1OC	i	>57
COc1cc(C2C(C(=O)c3ccc(C)o3)=C(O)C(=O)N2Cc2cccnc2)ccc1O (centres undefined)	i	>57
COCCCNC(=O)Cn1ncc2c(=O)oc3ccccc3c21	i	>57
CC(C)(C)NC(=O)C1N(c2cccnc2)C(=O)C2C(C(=O)Nc3ccccc3)C3(C)C=CC21O3 (centres undefined)	i	>57
O=S(=O)(c1ccc(OCC(O)CN2CCN(c3ccccc3Cl)CC2)cc1)N1CCOCC1 (centres undefined)	i	>57
COc1ccc(C2=NCC(CSc3nnc(-c4ccc5c(c4)OCO5)o3)S2)cc1 (centres undefined)	i	>11
Cc1noc(C)c1C(=O)OCC(=O)Nc1ccccc1C(=O)NC(C)c1ccccc1 (centres undefined)	i	>57
O=C(c1ccc(S(=O)(=O)N2CCOCC2)cc1)N1CCN(c2cccc(Cl)c2)CC1	i	>57
N#Cc1nc(COc2ccccc2F)oc1N1CCCCCC1	i	>57
CCOc1ccc(NC(=O)Nc2ccc3nccnc3c2)cc1	i	x
COc1ccc(N=C2SCC(=O)N2c2ccc(OC)cc2)cc1	i	>57
CCn1c(=O)cc(SCC(=O)NCc2cccnc2)c2ccccc21	i	>57
Cn1c(=O)c2c(nc(NCCc3ccccc3)n2CC(=O)NCCc2ccccc2)n(C)c1=O	i	>57
CC1CCCN(CCCNC(=O)c2coc3nc4ccccc4nc23)C1 (centres undefined)	i	>57
Nc1ccc(N2CCOCC2)c(Cl)c1	i	>57
CN(C)S(=O)(=O)c1cccc(C(=O)NCc2ccco2)c1	i	>57
CC1CCCN(S(=O)(=O)c2ccc(S(=O)(=O)N3CCCN(Cc4ccccc4)C3)cc2)C1 (centres undefined)	i	>57
COCCn1nnnc1C(C(C)C)N(Cc1cccnc1)Cc1cc2cc(OC)ccc2[nH]c1=O (centres undefined)	i	>57

Gathered by group: the compounds so far with a halogen (6)
SMILES	TsaE inh	Bst PK mod
Cc1cc(C)n(S(=O)(=O)c2cc(C(=O)O)c(Cl)cc2Cl)n1	i	>57
CCOC(=O)CSc1nnnn1-c1cc(OC)c(Cl)cc1OC	i	>57
O=S(=O)(c1ccc(OCC(O)CN2CCN(c3ccccc3Cl)CC2)cc1)N1CCOCC1 (centres undefined)	i	>57
O=C(c1ccc(S(=O)(=O)N2CCOCC2)cc1)N1CCN(c2cccc(Cl)c2)CC1	i	>57
N#Cc1nc(COc2ccccc2F)oc1N1CCCCCC1	i	>57
Nc1ccc(N2CCOCC2)c(Cl)c1	i	>57

(further entries)
SMILES	TsaE inh	Bst PK mod
COc1cccc(-n2c(Cc3cc(=O)[nH]c(=O)[nH]3)nnc2SCc2cccnc2)c1	i	x
COc1ccc(NC(=O)Cn2nc(C(F)(F)F)c3c2CCCC3)c(OC)c1	i	>57
NCCCCCc1nnc(SCC(=O)Nc2cccc(Cl)c2)o1	i	>57
CCCSC1=N/C(=C\C=C\c2ccco2)C(=O)S1	i	x
CN1CCN(c2ncnc3c2[nH]c2ccc(F)cc23)CC1	x	>26
N#CCCN1CCN(S(=O)(=O)c2ccc(S(=O)(=O)N3CCCC3)cc2)CC1	i	x
CCOC(=O)CSc1nc2c(c(=O)[nH]c(=O)n2C)n1CCc1ccccc1	i	>57
CCOC(=O)C(NC(=O)c1ccc(OC)cc1)(N1CCOCC1)C(F)(F)F (centres undefined)	i	>57
Cc1cc(=O)oc2cc(OCC(=O)N3CCc4ccccc4C3)ccc12	i	i
CCC(NC(=O)Nc1ccc(O)cc1)(C(F)(F)F)C(F)(F)F	x	>26
CCCn1nnc(NC(=O)c2ccco2)n1	i	>57
COc1ccccc1-n1c(=O)c2c3c(sc2n2c(SC(C)C)nnc12)CCC3	x	>26
Cc1cnc(CNc2ncnc3ccc(-c4c(C)noc4C)cc23)cn1	i	x
CCN(CCCNC(=O)c1c(C)cc(=O)oc1C)c1cccc(C)c1	i	>57
CC(C)c1ccc(Cn2ccc3c4c(N)nc(NC5CC5)nc4ccc32)cc1	i	x
CCOC(=O)N1CCN(C(=O)CSCC(=O)Nc2nc(-c3ccc4c(c3)OCO4)cs2)CC1	i	x
CC(=O)N1CCN(c2ccc(NCc3ccccc3)cc2)CC1	i	>57
CN(C(=O)c1ccc(Cl)c(S(=O)(=O)N2CCOCC2)c1)c1ccccc1C(=O)O	i	>57
CC1CCN(S(=O)(=O)c2ccc3c(c2)oc(=O)n3CC(=O)NCc2ccc3c(c2)OCO3)CC1	i	x
Cc1c(NC2=NC3(CCCCC3)Cc3ccccc32)c(=O)n(-c2ccccc2)n1C	i	x
COc1ccc(NC(=O)CN(c2ccccc2)S(=O)(=O)N(C)C)cc1OC	i	>57
CCOC(=O)C(C)Sc1nc(-c2ccco2)cc(C(F)(F)F)c1C#N (centres undefined)	i	>57
Cc1ccc(C(=O)CSc2nnc(-c3cccs3)n2C)o1	i	x
CC(O)CNc1nc2c(c(=O)n(C)c(=O)n2C)n1Cc1cccc(C(F)(F)F)c1 (centres undefined)	x	>26
COc1ccc(NC(=O)COn2nnc3ccc(Cl)cc32)cc1OC	i	>57
CCC(C)C(=O)Nc1cc(C(=O)OC)cc(C(=O)OC)c1 (centres undefined)	i	>57
Cc1cc(-c2ccccc2)n2ncc(C#N)c2n1	i	x
O=C(CSc1nc2ccccc2n1-c1ccccc1)NCC1CCCO1 (centres undefined)	i	>57
Nc1nnc(-c2ccccc2)c(-c2ccccc2)n1	i	>57
CCOC(=O)c1c(NC(=O)c2nc3n(n2)C(C(F)F)CC(C)N3)sc2c1CCCC2 (centres undefined)	i	>57
Fc1ccc(-c2nnc(SCc3ncc(-c4ccccc4)o3)n2CC2CCCO2)cc1 (centres undefined)	i	>57
Cc1cc(C)n(-c2nc(NC(C)C)nc(NC(C)C)n2)n1	i	>57
CCn1c(SCC(=O)N2CCOCC2)nnc1-c1cccs1	i	>57
O=C1N(Cc2ccccc2)CCCC12CCCN(Cc1ccccc1)C2=O	i	x
Cc1ccc(S(=O)(=O)N2CCOCC2)cc1C(=O)Nc1ccc(-c2cn3ccsc3n2)cc1	i	x
Cc1cc(S(=O)(=O)N2CCN(c3ccccc3C)CC2)ccc1F	i	x
CCC(C)(C)n1nnnc1C(c1cccs1)N1CCN(Cc2ccccc2)CC1 (centres undefined)	i	>57
Cc1ccc(-n2cc(C(C)(C)C)[nH]c2=S)cc1	i	u
O=C1c2ccccc2-c2ccc(C(=O)N3CCOCC3)cc21	i	>57
CCOC(=O)Cn1c(N2CCOCC2)nc2c1c(=O)[nH]c(=O)n2C	i	>57
C=CCn1c(SC(C)C(=O)NCc2ccc3c(c2)OCO3)nnc1C1CCCCC1 (centres undefined)	i	>57
COc1ccc(-n2nc3c(c2NC(=O)c2c(-c4ccccc4Cl)noc2C)CS(=O)(=O)C3)cc1	i	>57
CCCCOC(=O)Nc1nnc(CCOCC)s1	i	x
COc1nc(N2CCCCCC2)nc(N2CCCCCC2)n1	i	>57
Cc1ccc2oc(=O)c3cnn(CC(=O)NCCN4CCOCC4)c3c2c1	i	x
O=S(=O)(c1ccc(-c2csc(-c3cccnc3)n2)cc1)N1CCCCC1	i	>57
Cc1nc2ncnn2c(C)c1CCC(=O)Nc1csc(N)n1	i	>57
CCOC(=O)c1c(C)c(C(=O)NC(C)COC)c(C)n1C (centres undefined)	i	>57
COc1ccc(-c2c(=O)n(OCc3ccccn3)c3ccccc3[n+]2[O-])cc1OC	i	x
O=C1OC(=O)[C@@H]2[C@@H]1[C@@H]1CC[C@H]2O1	i	x
CCOC(=O)c1ccc(NC(=O)Nc2ccc(S(N)(=O)=O)cc2)cc1	i	>57
O=C(CC1NC(=O)NC1=O)NC1(C(=O)NC2CCCCC2)CCCCC1 (centres undefined)	i	>57
Cc1ccccc1-n1nc2c(c1NC(=O)c1ccc(S(=O)(=O)N(C)C)cc1)CSC2	i	>57
O=S(=O)(c1ccccc1)c1nc(Nc2ccccc2N2CCOCC2)sc1Cl	i	>57
COc1ccc(C(=O)N2CCC[C@@]3(CCN(c4ccccc4)C3)C2)cc1	i	x
O=C(NCC(=O)N(CCc1ccccc1)C(C(=O)NC1CCCCC1)c1ccncc1)c1ccco1 (centres undefined)	i	>57
O=C(Cn1nc(C(=O)O)c2ccccc2c1=O)NCC1CCCO1 (centres undefined)	i	>57
CCOC(=O)C1=C(C)N=C2SC(CC)C(=O)N2C1c1ccc(OC(C)=O)c(OCC)c1 (centres undefined)	i	>57
Cc1ccc2[nH]c(=O)c(CN(CCCN3CCOCC3)Cc3nnnn3C3CCCC3)cc2c1	i	>11
Cc1noc(/C=C/c2ccco2)c1S(=O)(=O)N1CCC(C(=O)N(C)Cc2ccccc2)CC1	i	>57

6 compounds drawn at random from those above:
SMILES	TsaE inh	Bst PK mod
CCOC(=O)c1c(C)c(C(=O)NC(C)COC)c(C)n1C (centres undefined)	i	>57
Cc1ccc2oc(=O)c3cnn(CC(=O)NCCN4CCOCC4)c3c2c1	i	x
O=C1OC(=O)[C@@H]2[C@@H]1[C@@H]1CC[C@H]2O1	i	x
Cc1ccc2[nH]c(=O)c(CN(CCCN3CCOCC3)Cc3nnnn3C3CCCC3)cc2c1	i	>11
COc1ccc(C(=O)N2CCC[C@@]3(CCN(c4ccccc4)C3)C2)cc1	i	x
O=C(CC1NC(=O)NC1=O)NC1(C(=O)NC2CCCCC2)CCCCC1 (centres undefined)	i	>57

Look-ups from the list:
Bst PK mod result of `COc1nc(N2CCCCCC2)nc(N2CCCCCC2)n1` = >57
Bst PK mod result of `Cc1nc2ncnn2c(C)c1CCC(=O)Nc1csc(N)n1` = >57
Bst PK mod result of `O=S(=O)(c1ccc(-c2csc(-c3cccnc3)n2)cc1)N1CCCCC1` = >57

The listing continues.
SMILES	TsaE inh	Bst PK mod
Cc1cc2c(c(=O)n1CC1CCCO1)C(c1ccc3c(c1)OCO3)C(C#N)=C(N)O2 (centres undefined)	x	>26
Clc1ccc(OCCCn2cncn2)cc1Cl	i	>57
Cn1c(=O)c2c(nc(CN3CCC(C(N)=O)CC3)n2Cc2c(F)cccc2Cl)n(C)c1=O	i	>57
CCOC(=O)N1CCN(C(=O)CSCC(=O)Nc2nc(-c3ccc(Cl)s3)cs2)CC1	i	>57
CCOC(=O)c1ccc(NC(=O)C2CCCO2)cc1 (centres undefined)	i	>57
Nc1cc(-c2ccco2)no1	i	>57
C[C@H](NC(=O)NCCc1ccccc1)C(=O)O	i	>57
O=C(Nc1cccc(F)c1)N1CC2(CCN(S(=O)(=O)c3ccccc3)CC2)C1	i	x
O=C(c1ccc(F)cc1)C1CCN(CCn2c(=S)[nH]c3ccccc3c2=O)CC1	i	x
O=c1[nH]c2cc(Cl)ccc2n1-c1ccccc1	i	>57
Cc1ccc(C)c(-n2c(Cc3cc(=O)[nH]c(=O)[nH]3)nnc2SC(C)C)c1	i	x
CCNc1ncc2nc(-c3cn(C)c4ccccc34)c(=O)n(C)c2n1	i	x
CCC(=O)N(Cc1cc2c(C)ccc(C)c2[nH]c1=O)C1CCCCC1	i	>57
C/C(=N\O)C(C)/[N+]([O-])=C/c1nc(C)c(C)n1O (centres undefined)	i	>57
Cc1ccccc1-c1nc(CN2CCC(C(=O)NCC3CCCO3)CC2)c(C)o1 (centres undefined)	i	>57
COc1ccc(-c2nnc(-c3cccnc3)o2)cc1OC	i	x
Fc1ccc2[nH]c3c(N4CCN(C5CCCCC5)CC4)ncnc3c2c1	i	>11&>57
CN(Cc1ccccc1)c1nnc(N)s1	i	x
CCOc1ccc(CCNC(=O)C2CCCN(c3nnc(-n4cccc4)s3)C2)cc1OCC (centres undefined)	i	>57
Cn1c(=O)oc2cc(S(=O)(=O)NC3CCCc4ccccc43)ccc21 (centres undefined)	i	x
Cc1cc(C)nc(SCc2nnc(SCC(=O)N3CCCc4ccccc43)o2)n1	i	>57
COC(=O)c1oc2ccc(Br)cc2c1NC(=O)CCN1CCOCC1	i	>57
CC(=O)Nc1sc(C)c(C)c1CN1CCN(S(=O)(=O)c2ccccc2)CC1	i	>57
Cc1csc(NC(=O)CCN2C(=O)c3ccccc3S2(=O)=O)n1	i	>57
O=C(CCC(=O)N1CCc2ccccc21)N1CCc2ccccc21	i	>57
CC(=O)C(=[N+]=[N-])C(=O)NCc1ccccc1	x	>26
COc1ccccc1CN1CCCC2(CCN(S(C)(=O)=O)CC2)C1	i	x
OCCNc1ccc(Cl)cc1	i	>57
COc1ccccc1C1C(C(C)=O)=C(O)C(=O)N1CCc1ccccc1 (centres undefined)	i	x
O=S1(=O)N=C(SCCO)c2ccccc21	i	>57
CCC(C)(C)NC(=O)C(c1cccn1C)N(Cc1ccccc1)C(=O)Cn1nnc2ccccc21 (centres undefined)	i	>57
CCC(=O)N1CCCc2cc(S(=O)(=O)N3CCC(N4CCCCC4)CC3)ccc21	i	>57
CCN1CCN(c2nc(-c3cccnc3)nc3ccccc23)CC1	i	>11
Cc1ccc(-n2nnc3c(=O)n(Cc4cccc(C)c4)cnc32)cc1	i	x
Cc1cccc(N2C(=O)CC(Sc3nc(C)c4c(n3)CCCC4)C2=O)c1 (centres undefined)	i	>57
CCCc1nc(-c2cc3ccc(C)cc3[nH]c2=O)no1	i	i
O=C(c1cc(-c2ccc(O)cc2)on1)N1CCCc2ccccc21	i	x
O=C(NCN1CCc2ccccc2C1)c1cnccn1	i	>57
O=C(c1coc2ccc(O)cc12)C1CC1	i	x
O=C(CN(C1CCCCC1)S(=O)(=O)c1ccc(F)cc1)NCCCO	i	x
O=C(Cn1c(=O)oc2cc(S(=O)(=O)N3CCCCCC3)ccc21)NC1CCCCCCC1	i	x
O=C1CSC(c2ccccn2)N1Cc1cn2ccccc2n1 (centres undefined)	i	>57
